Source: PubChem BioAssay (Sanford-Burnham Center for Chemical Genomics)
UBC13 polyUb = UBC13 polyubiquitin chain formation inhibitors, primary screen, biochemical, TR-FRET, uHTS; Ubiquitin-conjugating enzyme E2 N (Homo sapiens), P61088; actives 0.47% (n = 330,000); inhibition, % at 20 µM; in the data active = inhibition above about 45%, passing the limit was not always enough
Target sequence (P61088 whole entry, looked up): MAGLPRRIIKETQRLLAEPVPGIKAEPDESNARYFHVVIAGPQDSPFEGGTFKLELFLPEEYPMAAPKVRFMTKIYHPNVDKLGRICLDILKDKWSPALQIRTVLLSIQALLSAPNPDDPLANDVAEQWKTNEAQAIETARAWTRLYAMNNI
SENP1 FRET inh = human SENP1 catalytic domain inhibitors, primary screen, biochemical, FRET, uHTS | Sentrin-specific protease 1 (Homo sapiens), Q9P0U3 | recombinant SENP1 catalytic domain, CyPet-SUMO1-YPet FRET cleavage | inhibition, % at 10 µM | actives 0.21% (n = 360,000) | AID 624204, 2012;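 active = inhibition at least 30% at 10 µM, raw YFP signal under a set limit, fluorescence ratio 0.5 to 1.5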;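 also: 0% = enzyme with DMSO and 100% = no enzyme wells; some results filed as inactive read as strong as hits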
Target sequence (Q9P0U3 419-644 limits assumed): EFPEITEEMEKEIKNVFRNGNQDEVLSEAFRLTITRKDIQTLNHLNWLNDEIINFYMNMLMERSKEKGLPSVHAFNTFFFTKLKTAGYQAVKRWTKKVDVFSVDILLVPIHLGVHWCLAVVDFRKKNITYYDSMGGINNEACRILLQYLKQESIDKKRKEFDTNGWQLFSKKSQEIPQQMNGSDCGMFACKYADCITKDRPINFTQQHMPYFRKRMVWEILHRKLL
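material = recombinant human SENP1 catalytic domain, His6-tagged | quantity = 20 pM enzyme | reagent = 25 nM SUMO1 FRET substrate | compound dosing = 10 µM single point, 0.5% DMSO | timing = 50 min enzyme reaction, room temperature, light-protected | detection = FRET, CFP and YFP emission | control set = no-enzyme low, enzyme-DMSO high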
SENP6 inh = SENP6 protease inhibitors, primary screen, biochemical, luminescence, uHTS. Sentrin-specific protease 6 (Homo sapiens), Q9GZR1. Recombinant SENP6 catalytic domain, aminoluciferin luminescence. inhibition, % at 10 µM. actives 1.8% (n = 330,000). AID 2599, 2010;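 active = inhibition above about 50% at the single tested dose, limit read from the data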;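 also: plate controls were DMSO wells with enzyme for no effect and DMSO wells lacking enzyme for full effect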
APOBEC3G inh = APOBEC3G DNA deaminase inhibitors, primary screen, biochemical, fluorescence, single-stranded DNA substrate, uHTS; DNA dC->dU-editing enzyme APOBEC-3G (Homo sapiens), Q9HC16; recombinant A3G, ssDNA deamination FAM/TAMRA fluorescence; inhibition, % at 20 µM; actives 0.28% (n = 330,000); AID 493012, 2011;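 active = inhibition of at least 40% at 20 µM, with no more than 30% in the related APOBEC3A deaminase screen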;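 also: plate controls were DMSO wells with A3G for no effect and wells lacking A3G enzyme for full effect; some compounds called inactive have numbers as strong as hits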
Target sequence (Q9HC16 whole entry, looked up): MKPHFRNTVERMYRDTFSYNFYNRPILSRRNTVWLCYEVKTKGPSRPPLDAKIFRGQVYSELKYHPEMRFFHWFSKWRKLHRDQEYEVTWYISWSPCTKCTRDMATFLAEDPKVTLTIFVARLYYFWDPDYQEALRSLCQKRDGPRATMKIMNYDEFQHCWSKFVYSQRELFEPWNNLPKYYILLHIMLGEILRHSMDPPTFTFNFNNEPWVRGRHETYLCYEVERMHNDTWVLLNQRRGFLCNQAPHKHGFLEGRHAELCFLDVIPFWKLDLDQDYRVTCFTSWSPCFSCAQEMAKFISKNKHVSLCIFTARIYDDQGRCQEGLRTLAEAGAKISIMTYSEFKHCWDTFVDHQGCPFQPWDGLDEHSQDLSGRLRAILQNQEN
SENP8 block-1 = human SENP8 protease inhibitors, primary screen, biochemical, fluorescence, Nedd8 protein substrate, uHTS; Sentrin-specific protease 8 (Homo sapiens), Q96LD8; recombinant SENP8; AID 602440, 2012; inhibition, % at 20 µM; actives 0.64% (n = 360,000); in the data active = inhibition mostly above about 40%, no sharp cut-off; inactive = mostly below about 27%
Target sequence (Q96LD8 whole entry, looked up): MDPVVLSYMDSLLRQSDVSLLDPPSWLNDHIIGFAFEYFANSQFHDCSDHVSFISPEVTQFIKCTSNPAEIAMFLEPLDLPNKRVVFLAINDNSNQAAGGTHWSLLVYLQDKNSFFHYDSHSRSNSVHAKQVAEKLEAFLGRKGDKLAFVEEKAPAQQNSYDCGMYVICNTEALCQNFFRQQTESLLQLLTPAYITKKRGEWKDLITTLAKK
SENP8 block-2 = SENP8 protease inhibitors, primary screen, biochemical, luminescence; purified SENP8, Z-RLRGG-aminoluciferin cleavage; inhibition, % at 10 µM; actives 1.2% (n = 330,000); AID 2540, 2010; in the data active = inhibition above about 50%
SENP7 block = SENP7 protease inhibitors, primary screen, biochemical, luminescence, uHTS | Sentrin-specific protease 7 (Homo sapiens), Q9BQF6 | recombinant SENP7, Z-RLRGG-aminoluciferin luminescence, 40 min | inhibition, % at 5 µM | actives 1.5% (n = 330,000) | AID 434973, 2010;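 active = inhibition above about 50% at the single test dose, limit read from the data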;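 also: plate controls were DMSO with enzyme for no effect and no enzyme buffer wells for full effect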
Active calls of the source: *; i = inactive; . = not tested or not shown.

The first 2 compounds (preview)
(1) O=C1C2CC=C(Cl)CC2C(=O)N1CCc1ccccc1 (stereo unspecified)
(2) Cc1ccc2cc(C#N)c(N3CCCN(C(=O)C4CCCO4)CC3)nc2c1C (stereo unspecified)

assay / entry,1,2
UBC13 polyUb,6.9,4.3
SENP1 FRET inh,-25.4,-36.7
SENP6 inh,13.6,19.2
APOBEC3G inh,-5.4,-2.0
SENP8 block-1,-5.5,-230.9
SENP8 block-2,-0.6,-4.7
SENP7 block,2.0,16.2

The list itself, from the first entry:
(1) O=C1C2CC=C(Cl)CC2C(=O)N1CCc1ccccc1 (stereo unspecified)
(2) Cc1ccc2cc(C#N)c(N3CCCN(C(=O)C4CCCO4)CC3)nc2c1C (stereo unspecified)
(3) COc1ccc2c(c1OC)C(=O)N1C(C(=O)O)Cc3c([nH]c4ccccc34)C21 (stereo unspecified)
(4) COc1ccc(C2C3=C(CC(C)(C)CC3=O)N(CCN3CCOCC3)C3=C2C(=O)CC(C)(C)C3)cc1
(5) COC(=O)Nc1sc(C)nc1-c1ccccc1
(6) COCCN1C=C(C(=O)OC)C(c2cc(Br)c(OC)c(OC)c2)C(C(=O)OC)=C1

assay / entry,1,2,3,4,5,6
UBC13 polyUb,6.9,4.3,0.5,8.0,2.9,8.3
SENP1 FRET inh,-25.4,-36.7,-67.1,-36.2,-1.1,-137.8
SENP6 inh,13.6,19.2,5.3,-7.9,-0.8,17.0
APOBEC3G inh,-5.4,-2.0,0.0,-6.4,-3.9,0.2
SENP8 block-1,-5.5,-230.9,-315.2,-439.2,3.9,-385.6
SENP8 block-2,-0.6,-4.7,6.7,-2.3,-2.0,2.2
SENP7 block,2.0,16.2,-1.0,11.7,-4.2,9.6

(7) COc1ccc(C2NC(=O)NC3=C2CCc2ccccc23)cc1 (stereo unspecified)
(8) COc1cc2c(cc1OC)C(c1ccc3c(c1)OCO3)C1=C(CC(C)(C)CC1=O)N2 (stereo unspecified)
(9) Cc1c(CCC(=O)O)c(=O)oc2cc(O)ccc12
(10) CN(C)c1ccc(/C=C/c2cc[n+]([O-])cc2)cc1
(11) Cc1cccc(S(=O)(=O)c2c(N)n(Cc3ccco3)c3nc4ccccc4nc23)c1
(12) CCC(C)(C)n1nnnc1CN(Cc1cc2cc(OC)c(OC)cc2[nH]c1=O)C1CCCC1

assay / entry,7,8,9,10,11,12
UBC13 polyUb,-1.7,7.6,24.4,-9.4,3.0,-5.3
SENP1 FRET inh,-16.0,-7.9,-154.3,.,-21.5,-24.0
SENP6 inh,20.7,-7.8,7.3,-7.4,7.3,-26.4
APOBEC3G inh,-7.4,1.6,-3.4,-16.6,-8.1,-1.6
SENP8 block-1,-478.9,i,-289.1,.,-313.2,-386.7
SENP8 block-2,3.7,-4.1,5.7,2.5,10.3,-11.0
SENP7 block,9.0,4.4,0.1,-1.1,-1.5,-6.2

(13) N=c1c(C(=O)NCc2ccc(F)cc2)cc2c(=O)n3ccccc3nc2n1Cc1ccco1
(14) c1coc(-c2nc3nc4ccccc4nc3n2CC2CCCO2)c1 (stereo unspecified)
(15) O=C(Oc1cc2oc(=O)c3c(c2cc1Cl)CCCC3)c1ccco1
(16) COc1ccc(C2C3=C(CC(C)(C)CC3=O)Nc3c2c(=O)[nH]c(=O)n3Cc2ccccc2)cc1 (stereo unspecified)
(17) COc1cc(C2C3=C(CC(C)(C)CC3=O)Nc3c2c(=O)[nH]c(=O)n3Cc2ccccc2)ccc1O (stereo unspecified)
(18) COC(=O)Cc1c(C)c2cc(Cl)c(OC(=O)c3ccco3)cc2oc1=O

assay / entry,13,14,15,16,17,18
UBC13 polyUb,2.9,7.2,15.5,2.4,5.1,6.2
SENP1 FRET inh,8.8,-64.9,-37.3,4.8,-26.4,-65.1
SENP6 inh,-1.5,-20.9,1.4,3.0,-3.1,-4.0
APOBEC3G inh,9.3,-6.2,-0.7,-5.9,-6.9,-0.3
SENP8 block-1,-395.9,-336.0,-301.3,-407.4,-407.5,-398.9
SENP8 block-2,-4.0,-11.7,-0.3,-3.6,8.6,-6.6
SENP7 block,-9.7,-6.6,6.4,-5.4,1.3,4.3

(19) O=C(Nc1c(C(=O)N2CCOCC2)cnn1-c1ccccc1Cl)c1ccco1
(20) Cc1nc2[nH]c(=O)c3c(n2n1)NC1=C(C(=O)CC(C)(C)C1)C3c1ccccc1 (stereo unspecified)
(21) O=c1c2cc(N3CCOCC3)ccc2[nH]c(=S)n1CC1CCCO1 (stereo unspecified)
(22) NC(=O)C1(N2CCCCC2)CCN(C(=O)c2cccn3c(=O)c4cc(Cl)ccc4nc23)CC1
(23) Cn1c(-c2ccc(C(=O)c3ccccc3)s2)nc2ccccc21
(24) O=C(NCc1ccc2[nH]c3c(c2c1)CCCC3)N1CCOCC1

assay / entry,19,20,21,22,23,24
UBC13 polyUb,-9.0,16.5,-6.1,19.3,36.1,-6.4
SENP1 FRET inh,2.1,-21.7,-26.7,-23.6,-22.1,.
SENP6 inh,-6.6,0.8,-13.0,5.0,68.7*,16.3
APOBEC3G inh,-4.1,-1.8,-8.9,-5.5,-7.6,-3.4
SENP8 block-1,12.1,-264.5,-293.1,-249.1,i,.
SENP8 block-2,-5.2,2.4,-9.4,3.3,40.3,15.0
SENP7 block,-7.7,4.7,-10.4,1.8,98.5*,7.3

(25) Cc1ccc(S(=O)(=O)N2CCN(c3nc4ccccc4nc3-n3nc(C)cc3C)CC2)cc1
(26) O=C(NCc1ccco1)c1cc2nc(-c3ccc4c(c3)OCO4)cc(C(F)(F)F)n2n1
(27) O=C(c1cccn2c(=O)c3cc(Cl)ccc3nc12)N1CCOCC1
(28) Cc1ccc(-c2[nH]c(=O)n3ccncc23)s1
(29) COC(=O)C1=CN(C)C=C(C(=O)OC)C1c1ccccc1Cl
(30) C[C@]12CC[C@@H]3c4ccc(O)cc4CC[C@H]3[C@@H]1C[C@@H](O)[C@@H]2O

assay / entry,25,26,27,28,29,30
UBC13 polyUb,21.0,3.3,7.4,-28.9,9.5,4.1
SENP1 FRET inh,-127.3,-24.9,-28.0,-57.0,-21.8,1.4
SENP6 inh,-18.7,6.8,-4.0,-14.1,-7.9,-4.2
APOBEC3G inh,-9.9,1.5,-2.6,0.4,0.0,-2.3
SENP8 block-1,-431.6,-281.8,-327.8,-97.7,i,11.3
SENP8 block-2,-5.3,-3.1,-6.4,-5.0,-14.3,7.7
SENP7 block,-5.7,2.2,4.7,-1.9,-8.6,3.4

(31) CC1CN(C(=O)c2cc3c(=O)n4ccccc4nc3s2)CC(C)O1 (stereo unspecified)
(32) Cc1cc2c(c(=O)n1C)C(Cc1ccccc1)C(C#N)=C(N)O2 (stereo unspecified)
(33) Cn1c(=N)c(S(=O)(=O)c2ccccc2)cc2c(=O)n3ccccc3nc21
(34) Cn1nnnc1SCC(=O)N1CCN(Cc2ccccc2)CC1
(35) COc1ccc(-c2cc3ccc(OCc4nn[nH]n4)cc3oc2=O)cc1OC
(36) CCOc1ccc2nc(NCCNS(=O)(=O)c3ccccc3)c(C#N)cc2c1

assay / entry,31,32,33,34,35,36
UBC13 polyUb,10.7,-2.2,-5.7,9.0,12.5,-3.2
SENP1 FRET inh,-26.3,-76.5,-17.5,-0.4,-24.4,-35.0
SENP6 inh,14.0,8.4,-10.4,-1.9,75.9*,5.7
APOBEC3G inh,-4.5,-6.2,-4.4,-3.8,-1.8,5.5
SENP8 block-1,-322.2,-324.1,-425.9,10.2,-301.4,-275.8
SENP8 block-2,1.0,-0.7,3.0,-4.4,50.7*,4.2
SENP7 block,2.3,11.8,-0.1,5.9,65.2*,16.2

(37) Cc1ccc2[nH]c(=O)c(CNC(C)(C)C)cc2c1
(38) CCC(c1nnnn1Cc1ccccc1)N(Cc1ccco1)Cc1cc2cc(OC)ccc2[nH]c1=O (stereo unspecified)
(39) Cc1ccc2cc(C#N)c(NCCNC(=O)C3CC3)nc2c1C
(40) CCc1ccccc1NS(=O)(=O)c1cc(C)ccc1OC
(41) C=CCN(CC=C)c1nc2ccccc2nc1C(C#N)C(=O)OCCOC (stereo unspecified)
(42) Cc1cc(C)n2c3c(c(C#N)c2n1)CCCC3

assay / entry,37,38,39,40,41,42
UBC13 polyUb,-10.8,-4.6,9.2,2.1,-11.5,4.8
SENP1 FRET inh,20.4,-9.5,-139.4,3.5,-16.0,-45.0
SENP6 inh,-1.2,-4.6,-0.9,-6.0,-2.0,-6.1
APOBEC3G inh,-2.7,-3.9,-3.6,-0.2,-4.4,-2.9
SENP8 block-1,-99.7,-381.9,-261.5,15.5,-492.9,i
SENP8 block-2,-3.3,-12.6,5.3,3.3,-3.0,-11.5
SENP7 block,-10.6,-6.5,6.8,-3.0,3.7,-4.0

(43) O=C(NC1CCCC1)c1cnn2c(C(F)(F)F)cc(-c3ccco3)nc12
(44) CN(C)CCNc1c2c(c(C#N)c3nc4ccccc4n13)CCCC2
(45) CN1CCN(S(=O)(=O)c2ccc(=O)[nH]c2)CC1
(46) Cc1nnc(C)n1/N=C/c1cc(Br)ccc1O
(47) O=C1c2ccccc2NC(c2ccncc2)N1c1ccccn1 (stereo unspecified)
(48) CC(C)OC(=O)CC(=O)CSc1nc2c(cc1C#N)CCC2

assay / entry,43,44,45,46,47,48
UBC13 polyUb,-0.1,-6.0,5.5,1.2,14.0,-6.7
SENP1 FRET inh,-25.2,-78.5,-1.0,10.2,-21.6,-19.5
SENP6 inh,-8.7,5.1,-1.8,-22.2,-4.8,-5.1
APOBEC3G inh,0.4,-2.6,-3.1,-6.2,-2.4,-0.3
SENP8 block-1,-248.8,1.4,6.6,-95.8,-476.9,i
SENP8 block-2,1.1,0.8,-3.2,-3.6,-2.7,-8.9
SENP7 block,-2.3,0.4,-0.1,-2.6,1.8,-8.2

(49) Cn1c2ccccc2c(=O)n2c(=O)c3ccccc3cc12
(50) CC(=O)C1=C(C)NC(SCC(=O)c2ccc(C)cc2)=C(C#N)C1c1ccco1 (stereo unspecified)
(51) O=C(COc1ccc2c(c1)C(=O)CC1(CCCCC1)O2)NCc1ccccn1
(52) CC1CCCCN1Cc1nc2c(c(=O)n(C)c(=O)n2C)n1Cc1c(F)cccc1Cl (stereo unspecified)
(53) COc1ccccc1N=c1oc2cc(O)ccc2cc1C(=O)NCC1CCCO1 (stereo unspecified)
(54) CCOC(=O)N1CCN(C(=O)COc2ccc3c(c2)C(=O)CC2(CCN(C(C)=O)CC2)O3)CC1

assay / entry,49,50,51,52,53,54
UBC13 polyUb,-6.6,-6.9,-4.7,-3.5,-6.8,-1.1
SENP1 FRET inh,.,.,-7.6,-6.0,-20.5,-10.8
SENP6 inh,90.4*,-10.3,1.9,-0.3,-2.5,1.9
APOBEC3G inh,-3.6,5.2,-7.8,-10.9,-1.4,-4.7
SENP8 block-1,.,.,-270.4,-14.0,-238.8,-260.9
SENP8 block-2,96.9*,-3.1,-7.1,-6.7,-2.1,-9.6
SENP7 block,95.3*,-5.7,-1.7,-15.1,0.2,-10.6

(55) CC1=C(C(=O)OC(C)C)C(c2cccnc2)C2=C(CCCC2=O)N1 (stereo unspecified)
(56) COc1ccc(C2C=C(c3ccccc3)Nc3nc(CCCO)nn32)cc1 (stereo unspecified)
(57) CC12CCC3c4ccc(O)cc4CCC3C1CC(O)C2O (stereo unspecified)
(58) COc1ccc(-c2cc(=O)oc3c(C)c(O)c(CN(C)C)cc23)cc1
(59) Cc1ccc(S(=O)(=O)c2c(N)n(CC3CCOC3)c3nc4ccccc4nc23)cc1 (stereo unspecified)

assay / entry,55,56,57,58,59
UBC13 polyUb,3.4,15.2,-2.7,5.8,13.9
SENP1 FRET inh,-109.0,.,-1.6,-25.2,-16.4
SENP6 inh,-0.2,-15.2,-8.4,-7.6,12.4
APOBEC3G inh,1.7,-1.7,-0.4,-3.2,-2.6
SENP8 block-1,-268.7,.,7.3,-330.5,-271.9
SENP8 block-2,-1.2,-0.9,-3.3,-1.6,1.1
SENP7 block,-19.0,5.9,-3.6,3.5,-1.3

The list is partial; rates above refer to the full screens.
